Screening results from PubChem.
Env fusion inh: blocks HIV Env-driven cell-cell fusion | HeLa-JRFL Env/CEM21 cell fusion, luciferase | inhibition, % at 12.3 µM | 360,000 tested, 1.1% active;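 active = mean replicate inhibition score of at least 50 and every replicate individually at or above 50; inconclusive = only one of the two criteria met; inactive = mean below 50 and not all replicates reaching 50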;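 note: 0% = plate neutral controls and 100% = maraviroc near 300 nM; one replicate is shown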
* marks the source's active call; other numbers are inactive results; ? = inconclusive; [ ] = another dose, or the depositor's remark. Some of the compounds tested (hit frequency here may not be typical).

SMILES	Env fusion inh
C[C@H]1CCCCO[C@H](CN(C)CC2CCCCC2)[C@@H](C)CN([C@@H](C)CO)C(=O)c2cc(NC(=O)c3ccncc3)ccc2O1	-14[16.7 µM]
COc1ccc(N2C(=O)c3n[nH]c(C(C)C)c3C2c2ccc(F)cc2)cc1 (stereo unspecified)	-16
COc1ccc2ccccc2c1CN1CCN(c2ncc(Cc3ccccc3)cn2)CC1	-6
COc1ccc(C2CC(=O)C(c3ccc(F)cc3)=CN2Cc2ccccc2)cc1 (stereo unspecified)	0
C[C@H]1CN([C@@H](C)CO)C(=O)c2cc(NC(=O)Cc3ccccc3)ccc2O[C@H]1CN(C)Cc1ccc2c(c1)OCO2	-17[16.7 µM]
CO[C@H]1CN(C)C(=O)c2ccc(NS(=O)(=O)c3ccc(Cl)cc3)cc2OC[C@H](C)NC[C@@H]1C	9[16.7 µM]
COC(=O)C1=C(C)N(Cc2ccc(C(F)(F)F)cc2)C(=NCc2ccc(OC)cc2)NC1c1cccc(Cl)c1 (stereo unspecified)	-5
CCCC(=O)Nc1ccc2c(c1)C(=O)N(C)C[C@@H](OC)[C@H](C)CN(C(=O)CC1CC1)[C@H](C)CO2	-19[16.7 µM]
COC(=O)c1cc2c(c3c4cc(OC)ccc4n(S(=O)(=O)c4cccc(C)c4)c13)C(=O)N(Cc1ccccc1OC)C2	15
CCCN(C)C[C@H]1Oc2ncc(-c3ccccc3)cc2C(=O)N([C@H](C)CO)C[C@@H]1C	20[16.7 µM]
COC(=O)C[C@@H]1CC[C@H]2[C@H](COc3ccc(NC(=O)c4ccccc4)cc3C(=O)N2C)O1	1[16.7 µM]
COc1cccc(NC(=O)Nc2ccc3c(c2)C(=O)N(C)C[C@H](OC)[C@@H](C)CN(C)[C@@H](C)CO3)c1	-18[16.7 µM]
CC(=O)Nc1ccc(S(=O)(=O)NCC2CCN(C(=O)C(=O)c3cc4ccccc4o3)CC2)cc1	-43
CNC[C@H]1OCCCC[C@H](C)Oc2ccc(N)cc2C(=O)N([C@H](C)CO)C[C@@H]1C	1[16.7 µM]
CO[C@@H]1CC[C@@H]2CCOc3ccc(C#N)cc3C(=O)N(C)C[C@H](c3ccccc3)CC(=O)N(C)C[C@H]1O2	-6[16.7 µM]
O=C(NC[C@H]1CC[C@H]2[C@H](CN2C(=O)NC2CCCC2)O1)c1ccc2c(c1)OCO2	2[16.7 µM]
C[C@@H]1CN([C@@H](C)CO)C(=O)c2cc(NC(=O)Nc3ccc(C(F)(F)F)cc3)ccc2O[C@@H]1CN(C)S(=O)(=O)c1ccccc1	3[16.7 µM]
COc1ccc2c3c(n(C)c2c1)[C@H](CO)NCC31CN(CC2CC2)C1	-12[16.7 µM]
Cc1ccc(S(=O)(=O)Nc2ccc3c(c2)C(=O)N(C)[C@@H]2CC[C@@H](CC(=O)NCCc4ccncc4)O[C@H]2CO3)cc1	-3[16.7 µM]
C[C@H](CO)N1C[C@H](C)[C@H](CN(C)Cc2cccc3c2OCCCO3)OCc2cn(nn2)CCCC1=O	4[16.7 µM]

By substructure, those above containing nitrogen in an aromatic ring.
SMILES	Env fusion inh
C[C@H]1CCCCO[C@H](CN(C)CC2CCCCC2)[C@@H](C)CN([C@@H](C)CO)C(=O)c2cc(NC(=O)c3ccncc3)ccc2O1	-14[16.7 µM]
COc1ccc(N2C(=O)c3n[nH]c(C(C)C)c3C2c2ccc(F)cc2)cc1 (stereo unspecified)	-16
COc1ccc2ccccc2c1CN1CCN(c2ncc(Cc3ccccc3)cn2)CC1	-6
COC(=O)c1cc2c(c3c4cc(OC)ccc4n(S(=O)(=O)c4cccc(C)c4)c13)C(=O)N(Cc1ccccc1OC)C2	15
CCCN(C)C[C@H]1Oc2ncc(-c3ccccc3)cc2C(=O)N([C@H](C)CO)C[C@@H]1C	20[16.7 µM]
COc1ccc2c3c(n(C)c2c1)[C@H](CO)NCC31CN(CC2CC2)C1	-12[16.7 µM]
Cc1ccc(S(=O)(=O)Nc2ccc3c(c2)C(=O)N(C)[C@@H]2CC[C@@H](CC(=O)NCCc4ccncc4)O[C@H]2CO3)cc1	-3[16.7 µM]
C[C@H](CO)N1C[C@H](C)[C@H](CN(C)Cc2cccc3c2OCCCO3)OCc2cn(nn2)CCCC1=O	4[16.7 µM]

A second format for part of the listing above.
> CCCN(C)C[C@H]1Oc2ncc(-c3ccccc3)cc2C(=O)N([C@H](C)CO)C[C@@H]1C
  Env fusion inh = 20[16.7 µM]
> COC(=O)C1=C(C)N(Cc2ccc(C(F)(F)F)cc2)C(=NCc2ccc(OC)cc2)NC1c1cccc(Cl)c1 (stereo unspecified)
  Env fusion inh = -5

(further entries)
SMILES	Env fusion inh
COCc1cc(N2CCN(C(=O)OC(C)(C)C)C[C@H]2C)ccc1N1CC[C@@H](O)C1	32
CNC[C@H]1Oc2cc(C3=CCCC3)ccc2S(=O)(=O)N([C@H](C)CO)C[C@@H]1C	-9[16.7 µM]
O=C(O)C[C@H]1CC[C@H]2[C@@H](COC[C@H](O)CN2S(=O)(=O)c2ccc(Oc3ccccc3)cc2)O1	3[16.7 µM]
O=C(C[C@H]1C[C@@H]2c3cc(NC(=O)Nc4ccccc4)ccc3O[C@@H]2[C@H](CO)O1)NCc1ccccc1	-9[16.7 µM]
N#C[C@H]1[C@H](c2ccccc2-c2cccc(F)c2)[C@@H](CO)N1C(=O)C1CCCC1	23[16.7 µM]
CO[C@H]1CN(C)C(=O)c2cc(NC(=O)C3CCCCC3)ccc2OC[C@H](C)N(Cc2nccs2)C[C@@H]1C	-14[16.7 µM]
C[C@H](CO)N1C[C@H](C)[C@@H](CN(C)C(=O)Nc2cc(F)ccc2F)Oc2cc(C#CC3CC3)ccc2S1(=O)=O	1[16.7 µM]
O=C(C=Cc1ccc(OCc2ccccc2)cc1)c1c(F)cccc1F	-15
O=C(Nc1cccc2ccccc12)OC[C@@H]1CSCCS(=O)(=O)N1	-3
CO[C@@H]1CN(C)C(=O)c2cc(NC(C)=O)ccc2OC[C@@H](C)N(C(=O)c2ccc(F)cc2)C[C@@H]1C	39[16.7 µM]
O=C(C[C@H]1CC[C@H]2[C@@H](COC[C@H](O)CN2Cc2ccc3c(c2)OCO3)O1)N1CCCCC1	-5[16.7 µM]
CC(=O)N1CCN(c2ccc(N3CCN(C(C)=O)[C@@H](C)C3)c(C)c2)[C@H](C)C1	21
O=C(N[C@@H](Cc1cccnc1)C(=O)N1CCC[C@H]1C(=O)NC1CCCC1)c1ccccc1	24
CS(=O)(=O)Nc1ccc2c(c1)[C@@H]1C[C@@H](CC(=O)NCc3cc(F)ccc3F)O[C@@H](CO)[C@@H]1O2	6[16.7 µM]
C=CCN=C1NC(c2ccc(C(F)(F)F)cc2)C(C(=O)OC)=C(C)N1C (stereo unspecified)	-9
CCCC(=O)Nc1ccc2c(c1)C(=O)N(C)C[C@@H](OC)[C@@H](C)CN(C(=O)c1ccccn1)[C@H](C)CO2	5[16.7 µM]
CCCC(=O)Nc1ccc2c(c1)OC[C@H](C)N(CC1CCOCC1)C[C@H](C)[C@H](OC)CN(C)C2=O	-4[16.7 µM]
CO[C@H]1CN(C)C(=O)c2ccc(NC(C)=O)cc2OC[C@H](C)N(C(=O)c2ccccc2F)C[C@H]1C	-15[16.7 µM]
COc1ccccc1C(=O)Nc1ccc2c(c1)C(=O)N(C)C[C@@H](OC)[C@H](C)CN(C)[C@H](C)CO2	-18[16.7 µM]
C[C@@H]1CCCCO[C@@H](CN(C)CC2CC2)[C@@H](C)CN([C@H](C)CO)C(=O)c2cc(NC(=O)c3ccccc3)ccc2O1	4[16.7 µM]
COC(=O)[C@]12C[C@H](CC(=O)N3CCOCC3)C(=O)N(Cc3ccc4c(c3)OCO4)C1=C[C@H](C(C)(C)C)O[C@@H]2C	23
CN1C(=O)c2cc(NC(=O)c3cccs3)ccc2OC[C@H]2O[C@@H](CC(=O)N3CCCCC3)CC[C@H]21	3[16.7 µM]
COc1cccc(CNC(=O)[C@H]2CCCN2C(=O)[C@H]2CCCN2C(=O)c2cccc(F)c2)c1	-10
Nc1nc2c(ncn2[C@@H]2O[C@H](C(=O)N[C@H](Cc3ccccc3)C(=O)NCC3CCCCC3)[C@@H](O)[C@H]2O)c(=O)[nH]1	-48
CC(C)NC(=O)N(C)C[C@@H]1Oc2ncc(C#CC3CC3)cc2C(=O)N([C@H](C)CO)C[C@H]1C	14[16.7 µM]
O=C(C[C@H]1CC[C@@H]2[C@H](COC[C@H](O)CN2C(=O)Cc2ccccc2)O1)NC1Cc2ccccc2C1	-13[16.7 µM]
Cc1noc(C)c1S(=O)(=O)N(C)C[C@@H]1OCc2ccccc2-c2c(n(C)c3ccccc23)C(=O)N([C@H](C)CO)C[C@@H]1C	35[16.7 µM]
CCCNC(=O)C[C@@H]1C[C@@H]2c3cc(NC(=O)Nc4ccccc4F)ccc3O[C@@H]2[C@H](CO)O1	2[16.7 µM]
COc1ccc(CN(C)C[C@@H]2OCCCC[C@H](C)Oc3ccc(NC(=O)C4CCCCC4)cc3C(=O)N([C@H](C)CO)C[C@@H]2C)cc1	-87[16.7 µM]
CNC[C@@H]1OCCCC[C@@H](C)Oc2ccc(NC(=O)CCCN(C)C)cc2C(=O)N([C@H](C)CO)C[C@H]1C	-8[16.7 µM]
C[C@@H]1CCCCO[C@@H](CN(C)C(=O)c2ccccc2)[C@@H](C)CN([C@H](C)CO)C(=O)c2cc(NC(=O)c3ccncc3)ccc2O1	-11[16.7 µM]
CC(C)C[C@H]1COc2cc(Br)ccc2S(=O)(=O)N1Cc1ccc(Cl)cc1	12
C[C@@H]1CCCCO[C@@H](CN(C)Cc2ccccc2)[C@@H](C)CN([C@@H](C)CO)C(=O)c2cc(NS(C)(=O)=O)ccc2O1	-8[16.7 µM]
CC(C)NC(=O)Nc1ccc2c(c1)C(=O)N([C@H](C)CO)C[C@H](C)[C@@H](CN(C)C(=O)CCCN(C)C)OCCCC[C@@H](C)O2	3[16.7 µM]
CO[C@@H]1CN(C)C(=O)c2cc(NC(=O)NC(C)C)ccc2OC[C@H](C)N(Cc2cncnc2)C[C@H]1C	-31[16.7 µM]
C[C@@H]1CN([C@H](C)CO)C(=O)c2cc(C3=CCCC3)cnc2O[C@H]1CN(C)C(=O)c1ccc2c(c1)OCO2	6[16.7 µM]
O=C(C[C@@H]1C[C@H]2c3cc(NS(=O)(=O)c4ccccc4)ccc3O[C@H]2[C@@H](CO)O1)N1CCOCC1	-10[16.7 µM]
C[C@H](CO)N1C[C@H](C)[C@H](CN(C)Cc2cncnc2)Oc2cc(C#CC3CCCC3)ccc2S1(=O)=O	14[16.7 µM]
COc1ccc2c3c([nH]c2c1)[C@@H](CO)N(C(=O)CN(C)C)CC31CN(CC2CCOCC2)C1	5[16.7 µM]
COc1cccc(CNC(=O)[C@H]2CCCN2C(=O)[C@H]2CCCN2S(=O)(=O)c2cccc(C)c2)c1	-2
C[C@H]1CN([C@@H](C)CO)C(=O)c2cc(NC(=O)CCCN(C)C)ccc2O[C@H]1CN(C)C(=O)NC1CCCCC1	-5[16.7 µM]
COc1cccc(S(=O)(=O)Nc2ccc3c(c2)OC[C@@H](C)N(Cc2ccccc2F)C[C@@H](C)[C@H](OC)CN(C)C3=O)c1	-1[16.7 µM]
CCC(=O)N1C[C@H](C)[C@@H](OC)CN(C)C(=O)c2ccc(NC(=O)c3cc(C)on3)cc2OC[C@@H]1C	16[16.7 µM]
CCNC(=O)C[C@@H]1CC[C@@H]2[C@@H](COc3ccc(NC(C)=O)cc3C(=O)N2C)O1	-5[16.7 µM]
CN1CCCCC(NC(=O)c2cccs2)C1=O (stereo unspecified)	-6
COc1ccccc1NC(=O)Nc1ccc2c(c1)C(=O)N(C)C[C@@H](OC)[C@H](C)CN(Cc1ccccc1Cl)[C@H](C)CO2	27[16.7 µM]
C[C@H](CO)N1C[C@H](C)[C@H](CN(C)C)OCCCC[C@H](C)Oc2ccc(NC(=O)Nc3ccccc3)cc2C1=O	18[16.7 µM]
CO[C@H]1CN(C)C(=O)c2cc(C#N)ccc2OC[C@@H]2O[C@@H](CC[C@H]2OC)CCN(C)C(=O)[C@H]1C	-10[16.7 µM]
COCC(=O)N1CCC2(CC1)CN(Cc1cccc(F)c1)[C@@H](CO)c1c2c2ccc(OC)cc2n1C	-9[16.7 µM]
COc1ccccc1S(=O)(=O)N(C)C[C@H]1OCc2ccccc2-c2ccccc2C(=O)N([C@H](C)CO)C[C@@H]1C	-63[16.7 µM]
COc1ccc(NC(=O)Nc2ccc3c(c2)[C@H]2C[C@H](CC(=O)NCCc4ccccc4)O[C@@H](CO)[C@H]2O3)cc1	?
O=C([C@H]1[C@H](CO)[C@H]2Cn3c(ccc(-c4ccccc4)c3=O)[C@@H]1N2Cc1cccnc1)N1CCOCC1	8[16.7 µM]
C[C@@H]1CN([C@@H](C)CO)C(=O)c2cccc(NC(=O)NC3CCCCC3)c2O[C@@H]1CN(C)Cc1ccc(C(=O)O)cc1	8[16.7 µM]
COc1ccc(S(=O)(=O)Nc2ccc3c(c2)C(=O)N([C@H](C)CO)C[C@@H](C)[C@@H](CN(C)C)OCCCC[C@@H](C)O3)cc1	8[16.7 µM]
C[C@@H]1CCCCO[C@H](CN(C)C(=O)CCC(F)(F)F)[C@H](C)CN([C@H](C)CO)C(=O)c2cc(NS(=O)(=O)c3ccc(Cl)cc3)ccc2O1	14[16.7 µM]
CN1C(=O)c2cc(NC(=O)Nc3ccccc3)ccc2OC[C@@H]2O[C@@H](CC(=O)O)CC[C@H]21	9[16.7 µM]
CN(C)C(=O)[C@@H]1[C@@H](CO)[C@@H]2Cn3c(ccc(C4=CCCC4)c3=O)[C@H]1N2Cc1ccccn1	-10[16.7 µM]
COc1cccc(S(=O)(=O)Nc2ccc3c(c2)[C@@H]2C[C@@H](CC(=O)N4CCCCC4)O[C@@H](CO)[C@@H]2O3)c1	5[16.7 µM]
CCOC(=O)[C@@H]1CSCCS(=O)(=O)N1C(=O)[C@H](CCSC)NC(=O)OC(C)(C)C	-83
COc1cccc(NC(=O)Nc2ccc3c(c2)C(=O)N(C)C[C@@H](OC)[C@@H](C)CN(CC2CC2)[C@H](C)CO3)c1	3[16.7 µM]
